Bioassay records deposited in PubChem BioAssay by several laboratories.
MT1-MMP act inh: blockers of MT1-MMP proenzyme processing, primary screen, HT1080 RFP-PRO-GFP cells, GFP/RFP fluorescence; GFP/RFP ratio fluorescence, overnight; percent of plate control window, DMSO zero; GFP/RFP ratio change, % at 20 µM; 360,000 compounds, 0.061% hits;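 active = GFP/RFP ratio change of at least 30% with cell ATP level not reduced by more than half and red fluorescence within 50% of control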; also: strong numbers were not always called active
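Assay system – RFP-PRO-GFP reporter HT1080 cells · Compound dosing – single dose of 20 µM compound, 1% DMSO final · Incubation – overnight compound exposure at 37 °C · Measure – GFP/RFP fluorescence ratio · Benchmarks – DMSO wells and RFP-L50D-GFP cells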
Env fusion inh: inhibitors of HIV-1 Env-driven cell-cell fusion, primary screen, HeLa-JRFL effector, CEM21 target cells, luciferase. inhibition, % at 12.3 µM. 360,000 compounds, 1.1% hits;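 active = mean replicate inhibition score of at least 50 and every replicate individually at or above 50; inconclusive = only one of the two criteria met; inactive = mean below 50 and not all replicates reaching 50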;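 also: 0% = plate neutral controls and 100% = maraviroc near 300 nM; one replicate is shown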
UUG fidelity: modulators of yeast start codon fidelity, primary screen, whole organism, S. cerevisiae, single point, plate reader | S. cerevisiae UUG-firefly luciferase reporter, luminescence/redox ratio | activity score, % at 18.7 µM | 350,000 compounds, 0.13% hits | AID 602363, 2012;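 active = replicate mean at a twofold rise or more, about +100% in these data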;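 also: firefly luciferase made from a UUG start codon reports start codon fidelity; reporter light over untreated wells divided by growth signal over untreated wells; some hits fall short of that in this replicate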
PABP polyA inh: PABP poly(A) RNA binding inhibitors, primary screen, biochemical, fluorescence polarization, uHTS. Polyadenylate-binding protein 1 (Homo sapiens), P11940. inhibition, % at 35 µM. 290,000 compounds, 1% hits;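 active = 50% or more with normal probe brightness, or confirmed in later tests; inconclusive = above 50% with abnormal brightness, or retests that disagree; inactive = below 50% or failed in later tests; about a fifth of its hits are not listed in these tables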;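 also: calls also rest on retests at 20 µM and on dose response follow-up; controls were probe without protein and protein plus probe with vehicle; some compounds called inactive have numbers as strong as hits; many hits fall short of the cut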
Target sequence (P11940 whole entry, looked up): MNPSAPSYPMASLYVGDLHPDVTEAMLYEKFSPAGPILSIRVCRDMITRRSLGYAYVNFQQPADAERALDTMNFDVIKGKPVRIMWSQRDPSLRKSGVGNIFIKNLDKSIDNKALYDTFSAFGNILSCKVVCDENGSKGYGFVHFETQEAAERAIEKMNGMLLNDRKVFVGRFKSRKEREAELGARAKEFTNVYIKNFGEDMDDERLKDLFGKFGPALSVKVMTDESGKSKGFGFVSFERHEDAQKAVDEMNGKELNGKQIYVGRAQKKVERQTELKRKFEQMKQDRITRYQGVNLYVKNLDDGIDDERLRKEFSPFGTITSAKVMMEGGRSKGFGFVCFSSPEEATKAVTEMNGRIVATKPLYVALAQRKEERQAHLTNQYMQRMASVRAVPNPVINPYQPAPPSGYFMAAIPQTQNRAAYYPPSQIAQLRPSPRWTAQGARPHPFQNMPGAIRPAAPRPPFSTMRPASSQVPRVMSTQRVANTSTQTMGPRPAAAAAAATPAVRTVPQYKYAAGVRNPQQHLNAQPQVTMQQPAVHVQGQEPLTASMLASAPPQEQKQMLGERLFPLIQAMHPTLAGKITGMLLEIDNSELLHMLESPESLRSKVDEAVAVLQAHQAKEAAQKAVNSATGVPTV
eIF4H FP inh: human eIF4H binding inhibitors, primary screen, translation initiation inhibitor project, biochemical, uHTS, fluorescence polarization | Eukaryotic translation initiation factor 4H (Homo sapiens), Q15056 | 290,000 compounds, 0.94% hits | inhibition, % at 35 µM | eIF4H fluorescence polarization binding assay;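 active = 50% or more with normal probe brightness, or confirmed in later tests; inconclusive = above 50% with abnormal brightness, or retests that disagree; inactive = below 50% or failed in later tests; about a fifth of its hits are not listed in these tables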;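 also: calls also rest on retests at 20 µM and on dose response follow-up; 0% = protein and probe with vehicle and 100% = probe without protein; strong numbers were not always called active; many hits fall short of the cut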
CSC inhib: cancer stem cell viability inhibitors, primary screen, luminescence | inhibition, % at 7.5 µM | AID 2717, 2010 | 300,000 compounds, 1.1% hits | cancer stem cell-like cells viability;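 active = mean at 75% or more and at least half the replicates too; inconclusive = mean and replicates disagree; tested in HMLE shEcad cells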;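 also: 0% = median of negative and 100% = median of positive control wells; the first replicate is given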
Rce1 inhib: yeast Rce1p protease inhibitors, primary screen, biochemical, fluorescence, cell-free homogeneous | CAAX prenyl protease 2 (Saccharomyces cerevisiae (strain ATCC 204508 / S288c)), Q03530 | yeast membranes, quenched prenylated peptide cleavage fluorescence | calls only | 290,000 compounds, 0.27% hits | AID 2563, 2010;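 active = fall in fluorescence gain of 50% or more versus controls, with final raw signal at or below 3038400; inconclusive = same 50% fall but final raw signal above 3038400; inactive = fall in fluorescence gain under 50%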;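 also: plate controls were neutral control wells for no effect and wells lacking membranes for full effect; tested at 10 µM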
MT1-MMP act inh RFP: also measured in MT1-MMP act inh; calls as there; RFP signal change, %; measured here: RFP expression control read;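 0 = vehicle wells; hits needed this value within 50% of zero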
* = called active by the depositor; i = inactive; ? = inconclusive; . = no result given; & = joins results of further samples. An excerpt; the hit share may differ from the screen's.

SMILES	MT1-MMP act inh	MT1-MMP act inh RFP	Env fusion inh	UUG fidelity	PABP polyA inh	eIF4H FP inh	CSC inhib	Rce1 inhib
O=[N+]([O-])c1cc(/C=N\Nc2nccs2)ccc1O	.	.	.	.	92*	93*	.	i
COC(=O)CSc1[nH]c2ccccc2c1[N+](=O)[O-]	-6	-1	11	.	-4	-4	14	i
CCOc1cc(C2NC(=O)NC(O)(C(F)(F)F)C2C(=O)c2ccc(Cl)cc2)ccc1O (stereo not given)	4	1	.	-16	-3	-3	-2	i
O=C(Nc1ccc(N2CCOCC2)cc1)C1CCN(S(=O)(=O)c2ccccc2F)CC1	-3	-5	9	.	-1	7	-4	i
CCOc1ccc(OCCCCN2CCCC2)cc1	4	2	3	-6	-11	-7	10	i
OCCC1CN(Cc2cc(F)ccc2F)CCN1CCCc1ccccc1 (stereo not given)	0	2	10	-1	6	12	24	i
NC(=O)CC(NC(=O)c1ccccc1)c1ccc(N2CCc3ccccc3C2)c([N+](=O)[O-])c1 (stereo not given)	5	-16	1	-6	-2	-6	1	i
CCCS(=O)(=O)N1CCN(Cc2ccc([N+](=O)[O-])cc2)CC1	1	2	10	-1	3	19	-3	i
Cc1nn(Cc2ccccc2)c(Cl)c1/C=C/C(=O)OC(C)C(=O)N1CCCC1 (stereo not given)	0	-5	9	.	10	2	0	i
CC(=O)OCn1ncc(N2CCOCC2)c(Br)c1=O	4	2	6	2	-3	-5	-7	i
CC(C)c1nc2sc3c(SCC(N)=O)ncnc3c2c2c1CCC2	1	4	7	-17	-5	-20	8	i
CN(C)c1ccc(/C=N/NC(=O)CN(c2cccc(Cl)c2)S(C)(=O)=O)cc1Br	1	-8	.	3	14	2	-5	i
CN(C)C(=O)c1cc2cc(Br)ccc2s1	4	4	2	-7	3	1	-9	i
CC1CC(N(C(=O)c2ccco2)c2ccccc2)c2ccccc2N1 (stereo not given)	-4	-3	-131	-7	2	-6	-7	i
CCn1c(CNC(=O)c2ccccc2F)nnc1SCC(=O)Nc1nncs1	-1	-4	1	-8	-6	3	.	i
O=C(c1ccc([N+](=O)[O-])o1)N1CCOCC1	-1	-1	4	.	-9	1	4	.
COc1ccc(NC(=O)/C=C/c2cccc(Br)c2)cn1	-14	-9	-35	-18	?	?	17	i
CC1CCC(C(C)C)C(OC(=O)C[n+]2cc(-c3ccc(Cl)cc3)n3c2CCC3)C1 (stereo not given)	-7	-8	17	.	8	-7	13	i
COCC(C)n1c(COc2ccccc2F)nnc1SCc1c(C)noc1C (stereo not given)	7	7	.	-18	-4	-6	-14	i
O=C(O)c1ccn2c(C(=O)c3ccccc3)c(-c3ccccc3)cc2c1	-1	-1	-2	-19	-5	-16	-2	i
Cc1nn(CC(=O)Nc2sc3c(c2C#N)CCC(C(C)(C)C)C3)c(C)c1[N+](=O)[O-] (stereo not given)	3	-3	-53	.	-7	-8	33	i
COc1ccc(NC(=O)c2nc[nH]c2C(=O)NCc2ccccc2)cc1	-1	0	1	-14	.	.	-10	i
Cc1ccccc1C1c2[nH]c3ccccc3c2CCN1C(=O)c1ccc(=O)n(C)n1 (stereo not given)	0	-1	-24	.	2	-1	-4	i
CS(=O)(=O)N(CC(=O)Nc1c(F)cccc1F)Cc1ccccc1	-2	0	-1	-4	-11	-4	-2	i
CCCCOP(=O)(c1ccc(N(C)C)cc1)C(O)c1cc(OC)c(OC)c(OC)c1 (stereo not given)	-4	-1	2	9	5	6	-8	i

An excerpt from above in order of their number in Env fusion inh, low to high:
molecule | Env fusion inh
NC(=O)CC(NC(=O)c1ccccc1)c1ccc(N2CCc3ccccc3C2)c([N+](=O)[O-])c1 (stereo not given) | 1
O=C(Nc1ccc(N2CCOCC2)cc1)C1CCN(S(=O)(=O)c2ccccc2F)CC1 | 9
CCCS(=O)(=O)N1CCN(Cc2ccc([N+](=O)[O-])cc2)CC1 | 10

(further entries)
SMILES	MT1-MMP act inh	MT1-MMP act inh RFP	Env fusion inh	UUG fidelity	PABP polyA inh	eIF4H FP inh	CSC inhib	Rce1 inhib
CCOC(=O)c1ccc(NC(=O)CCCN2C(=O)NC3(CCCC3)C2=O)cc1	2	1	1	-15	.	.	.	.
COc1ccc(N2C(=O)CC(Nc3ccc(C)cc3)C2=O)cc1 (stereo not given)	3	3	-77	-20	-3	-2	-15	i
CCOc1ccc(Nc2oc(-c3ccc(Cl)cc3)nc2C#N)cc1	6	0	-84	-15	-4	-9	31	i
CCCCN1C(=O)C2(OCCCO2)c2cccc(C)c21	-4	-4	14	-16	0	-8	-3	i
NC(=O)c1ccc(-n2nc(C(F)(F)F)c3c2CCCC3)cc1	-3	-2	-16	.	-4	-14	-11	i
NCCS(=O)(=O)NC1CCCCC1	-2	1	10	.	4	-1	-1	i
COc1cc(C(=O)NCC(=O)NCC2COc3ccccc3O2)cc(OC)c1OC (stereo not given)	0	0	6	-2	.	.	.	i
Cc1cccc(NC(=O)c2ccc(NCCc3ccccc3)c([N+](=O)[O-])c2)c1	-79	2	9	.	-3	?	12	i
CCOC(=O)C1(Cc2ccc(Cl)cc2)CCN(C(=O)c2ccoc2)CC1	0	-7	0	.	6	4	-8	i
CCn1c(CC(C)C)n[nH]c1=S	-2	1	-116	-4	4	-9	12	i
CCc1cccc(NC(=O)C2CCCN2S(=O)(=O)c2ccc3c(c2)CC(C)N3C(C)=O)c1 (stereo not given)	2	0	61*	12	-4	2	.	i
Cc1ccc(NC(=O)c2nc[nH]c2C(=O)N[C@H](C)c2ccccc2)cc1	4	1	-28	-14	.	.	22	.
C=CCNC(=O)CN1CCC(c2nc3cc(C)c(C)cc3[nH]2)CC1	1	2	11	5	-10	-4	-2	i
CC(=O)c1c(C)nc2ccc(C)cc2c1-c1ccccc1	0	1	-1	1	2	1	11	i
O=C(Oc1ccc(/C=N/NC(=O)c2ccccc2O)cc1)c1ccccc1	6	3	.	-14	-1	-6	11	i
CC(NC(=O)C(=O)N1CCOCC1)C(c1cccs1)N1CCN(c2ccccc2F)CC1 (stereo not given)	2	2	-2	-7	6	-5	-3	i
COc1ccc2nc(SCC(=O)NC3CCCc4ccccc43)[nH]c2c1 (stereo not given)	-1	-1	9	2	0	-10	-10	i
CCn1c(C)cc(C(=O)CSc2nnnn2C2CCCC2)c1C	1	0	.	-22	.	.	-18	.
O=CNc1cc(-c2cccc(O)c2)cn2c(-c3ccc(F)cc3)cnc12	-10	-7	10	-8	.	.	.	.
CC(=O)c1ccc(OCCCC(=O)Nc2ccc(S(=O)(=O)N3CCOCC3)cc2)cc1	0	-7	-56	.	.	.	.	i
COc1ccc(C)cc1Nc1nc(C)nc2c1oc1ccccc12	-2	-3	-4	-5	5	-11	37	i
COc1ccc(C(=O)NCC2(c3ccc(OC)c(OC)c3)CCCC2)c(OC)c1	-2	-8	-97	-7	-3	4	-11	i
CC(C)CC(=O)Nc1cccc(-c2nc3ccccc3o2)c1	-5	-3	-9	-14	-7	-3	-6	i
CCc1nn(CCCN2CCN(c3cccc(Cl)c3)CC2)c(=O)n1CCOc1ccccc1	0&-2	-24&-21	34&45	-3&7	-3&6	-12&9	7&0	i
CN1CCCN(S(=O)(=O)c2ccc3ccccc3c2)CC1	2	3	-11	-14	3	-10	20	i

An excerpt from above, reduced to Rce1 inhib, MT1-MMP act inh RFP and UUG fidelity.
molecule | Rce1 inhib | MT1-MMP act inh RFP | UUG fidelity
O=C(Oc1ccc(/C=N/NC(=O)c2ccccc2O)cc1)c1ccccc1 | i | 3 | -14
CC(NC(=O)C(=O)N1CCOCC1)C(c1cccs1)N1CCN(c2ccccc2F)CC1 (stereo not given) | i | 2 | -7
COc1ccc2nc(SCC(=O)NC3CCCc4ccccc43)[nH]c2c1 (stereo not given) | i | -1 | 2

(cont.)
SMILES	MT1-MMP act inh	MT1-MMP act inh RFP	Env fusion inh	UUG fidelity	PABP polyA inh	eIF4H FP inh	CSC inhib	Rce1 inhib
CC(=O)N1CCOc2ccc(S(=O)(=O)N3CC(C)CC(C)C3)cc21 (stereo not given)	1	2	0	6	16	-8	-15	i
COc1ccc(NC(=O)c2cccs2)cc1	-2	1	.	-8	-15	-5	11	i
O=C(CN1CCOCC1)NN=C(c1ccccc1)c1ccccc1	0	-1	8	.	-3	2	-8	i
CN(C)S(=O)(=O)c1cccc(CNCC2COc3ccccc3O2)c1 (stereo not given)	2	1	14	-5	13	9	-8	i
COc1ccc(CN(C(=O)c2cccs2)c2nccs2)cc1OC	2	-3	3	-16	-2	3	-9	i
COc1ccc2c(CC(=O)Nc3ncc(C)s3)coc2c1	3	-6	i	-2	-16	-1	52	i
Cc1ccc2c(c1)CCO[C@]21O[C@H](CCO)C[C@H](O)[C@H]1O	4	0	-2	-13	.	.	.	.
Cc1ccsc1/C=N/NC(=O)CNC(=O)c1ccccc1	-1	6	-5	-13	-3	1	-1	i
CN(C)CCNc1ncnc2c1ncn2[C@H]1CN(CCc2ccccc2)C[C@@H](CO)O1	5	6	5	-6	.	.	.	.
N#Cc1cccc(NC(=O)COC(=O)c2ccc3c(=O)n4c(nc3c2)CCC4)c1	.	.	-2	.	1	-7	-14	i
CCC(CC)C(=O)N(C)c1c(C)nc2c(OCCOc3ccccc3)cccn12	-4	-1	2	-16	.	.	.	.
CCOC(=O)Nc1cc(C(=O)OCC)c(C)nc1C	2	1	.	.	2	-4	-17	i
COC(=O)c1cn(CC(=O)NCc2ccco2)c2ccccc12	2	3	-31	-2	-7	0	.	i
CCOc1ccc(NC(=O)CN(C)C(=O)CC2CCCC2)cc1OCC	10	5	.	-12	.	.	-18	.
Cn1c(=O)c(C(=O)Nc2ncccc2O)c(O)c2ccccc21	4	5	-70	-12	6	2	-8	i
Cc1nc(N2CCOCC2)[nH]c(=O)c1CCC(C)C	5	0	-87	-22	18	3	8	i
CCOc1cc(N2CCOCC2)c(OCC)cc1NC(=O)COC(=O)c1ccccc1OC(F)F	0	3	12	-26	.	.	.	.

One compound at a time, from the list above. Values in the order: MT1-MMP act inh	MT1-MMP act inh RFP	Env fusion inh	UUG fidelity	PABP polyA inh	eIF4H FP inh	CSC inhib	Rce1 inhib
Listed for COc1ccc2c(CC(=O)Nc3ncc(C)s3)coc2c1 : 3	-6	i	-2	-16	-1	52	i
Listed for Cc1ccc2c(c1)CCO[C@]21O[C@H](CCO)C[C@H](O)[C@H]1O : 4	0	-2	-13	.	.	.	.
Listed for COc1ccc(NC(=O)c2cccs2)cc1 : -2	1	.	-8	-15	-5	11	i
Listed for CCOc1cc(N2CCOCC2)c(OCC)cc1NC(=O)COC(=O)c1ccccc1OC(F)F : 0	3	12	-26	.	.	.	.
Listed for CC(=O)N1CCOc2ccc(S(=O)(=O)N3CC(C)CC(C)C3)cc21 (stereo not given) : 1	2	0	6	16	-8	-15	i
